Compound activity deposited in PubChem by ICCB-Longwood Screening Facility, Harvard Medical School.
Vaccinia pol inh = vaccinia E9 polymerase processive synthesis inhibitors, primary screen, biochemical, absorbance; Vaccinia virus DNA polymerase (E9) processive complex; 46,000 tested, 0.94% active; normalized absorbance, % (concentration not given with the values); in vitro processive DNA synthesis, absorbance read-out; hits give low values; some inactives read as strong as hits;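 active = replicate mean up to 90% and picked by the depositor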;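 note: 100% = median of the test wells of a plate; 100 nL library stock went into each well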
* = called active by the depositor.

SMILES | Vaccinia pol inh
Cc1ccc(NC(=O)N(CCC(=O)O)Cc2ccccc2)cc1 | 112.6
CCC(=O)Oc1ccc(/C=C/c2ccccc2)cc1OC | 99.4
O=C(CSCc1ccccc1)Nc1nnc(SCc2ccccc2)s1 | 100.6
COc1ccccc1NC(=O)c1cc2ccccc2oc1=O | 98.9
CNC(=O)C1OC(C)(C(C)(C)C)OC1C(=O)NC (stereo not given) | 97.5
CSc1sc(C(=O)Nc2cccc(Cl)c2)c(-c2cccs2)c1C#N | 114.7
O=C(NC=C(Cl)Cl)c1ccccc1 | 102.1
CCN(CC)S(=O)(=O)c1ccc(NC2c3ccccc3C(=O)N2Cc2ccccc2)cc1 (stereo not given) | 104.2
C=CCSc1nnc(-c2ccc(C)cc2)o1 | 100.0
COc1ccc2nc(NC(=O)c3ccccc3C)sc2c1 | 108.4
O=C(CCS(=O)(=O)c1ccc(Cl)cc1)OCc1ccccc1 | 102.6
Cc1cccc(C(C)C)c1NC(=O)COC(=O)Cc1ccsc1 | 81.9
CCN(CC)c1ccc(N=Cc2ccc(O)cc2)cc1 | 100.0
COc1ccc(/C=N/S(=O)(=O)c2ccccc2)cc1OC | 100.6
CCOC(=O)c1ccc(SC)cc1OC | 100.6
Nc1ccc(-c2cn3ccccc3n2)cc1 | 100.6
CC(c1ccccc1)N1CCn2c(nc3cc(NC(=O)c4cccc(Br)c4)ccc32)C1 (stereo not given) | 95.5
O=C(CCN1C(=O)C2C3C=CC(C3)C2C1=O)N1CCCCC1 (stereo not given) | 100.3
COc1ccc(OCCBr)cc1 | 96.7
CC(C)CC1=NC(C(F)(F)F)(C(F)(F)F)N=C(N2CCCCC2)O1 | 102.1
CCc1ccc(C(=O)/C=C/Nc2ccc(C)cc2O)cc1 | 100.8
CCN(CC)CCOC(=O)C(c1ccccc1)C1CCCCC1 (stereo not given) | 103.0
COc1ccc(-c2nn(CCC#N)cc2C#N)cc1 | 89.1
CCCn1c(C(C)NC(C)=O)nc2ccccc21 (stereo not given) | 101.1
CN(C(=O)c1ccc2c(Cl)c3c(nc2c1)CCC3)c1ccccc1Cl | 103.3

The list continues.
SMILES | Vaccinia pol inh
CCOc1ccc(C(NC(=O)c2ccco2)NC(=O)c2ccco2)cc1OC | 99.7
COc1ccsc1C(=O)O | 108.3
O=C(c1ccccc1)N(c1ccc2oc(=O)sc2c1)S(=O)(=O)c1ccccc1 | 97.5
COc1ccccc1C(=O)OCC(=O)N1CCCCCC1 | 105.0
O=C(c1cc2c(=O)oc3ccccc3c2s1)N1CCN(c2cccc(C(F)(F)F)c2)CC1 | 113.9
CCOc1ccc(Br)cc1S(=O)(=O)n1cccc1 | 98.5
Cc1sc(N)c(C#N)c1-c1ccc(Cl)cc1Cl | 99.7
CCOC(=O)c1ccccc1NC(=O)Cn1c(=O)n(-c2cc(C)cc(C)c2)c(=O)c2sccc21 | 99.3
COc1cc2c(cc1OC)C(=NC(C)C(=O)O)NC(C)(C)C2 (stereo not given) | 100.1
C1CCC(NC2=NCCC2)CC1 | 99.5
CCc1ccc(NC2c3ccccc3C(=O)N2c2ccccc2C)cc1 (stereo not given) | 91.6
Nc1nc(SCc2nc(-c3ccccc3)no2)n[nH]1 | 100.3
CC(C)NC(=O)N(Cc1ccccc1)Cc1cccs1 | 108.6
Cc1c(C(=O)NC2CCCCC2)c(C)n2cnn(CC(=O)NCCCN3CC(C)CC(C)C3)c(=O)c12 (stereo not given) | 91.5
COCC(=O)N1N=C(c2cccc(NS(C)(=O)=O)c2)CC1c1ccccc1C (stereo not given) | 94.5
CCCC(C(=O)O)N1Cc2ccccc2C1=O (stereo not given) | 99.2
O=C(O)C(Cc1ccccc1)NS(=O)(=O)c1cccc2cccnc12 (stereo not given) | 93.9
O=C(c1cccs1)c1coc2ccc(O)c(CN3CCOCC3)c12 | 100.7
O=C1CN(C(=O)COC(=O)Cc2ccccc2)c2ccccc2N1 | 97.3
CN(Cc1ccccc1)S(=O)(=O)c1ccc2[nH]c(=O)oc2c1 | 92.6
CN(C(=O)COc1ncnc2ccccc12)c1ccccc1 | 100.7
CC(=C1C(=O)c2ccccc2C1=O)N1CCc2ccccc2C1 | 99.6
Cc1ccc(C)c(NC(=O)CC(NC2CCCCC2)C(=O)O)c1 (stereo not given) | 98.9
Cc1csc(-c2c(C(F)(F)F)oc3cc(O)c(C)cc3c2=O)n1 | 91.0
Cc1cc(C)c(C2=NON3N(C(=O)c4cccs4)c4ccccc4N23)c(C)c1 | 100.3

In the list so far, these contain an NH in an aromatic ring:
SMILES | Vaccinia pol inh
Nc1nc(SCc2nc(-c3ccccc3)no2)n[nH]1 | 100.3
CN(Cc1ccccc1)S(=O)(=O)c1ccc2[nH]c(=O)oc2c1 | 92.6

The list continues.
SMILES | Vaccinia pol inh
N#CCc1ccc(NC(=O)Nc2ccccc2)cc1 | 105.1
CCc1cc2c(NC3CCCCC3)ncnc2s1 | 103.4
CS(=O)(=O)n1cnc2ccccc21 | 107.4
COc1ccccc1OCc1nc(-c2ccncc2)no1 | 95.8
CCN1CCN(C(c2cccnc2)c2ccc3cccnc3c2O)CC1 (stereo not given) | 106.4
CCS(=O)(=O)c1nc(S(=O)(=O)c2ccc(Cl)cc2)c(NCc2ccc(OC)cc2)s1 | 105.3
COC1(C(=O)NN)COc2ccccc2O1 (stereo not given) | 99.4
NC(=S)CS(=O)(=O)c1ccccn1 | 101.2
Cn1c(C(=O)N2CCCC2)cc2c(=O)n3ccccc3nc21 | 99.6
CN(C)/C=C(\C=[N+](C)C)c1cc(/C(C=[N+](C)C)=C\N(C)C)[nH]n1 | 100.1
O=C(CCCn1nc(-c2ccccc2)c2ccccc21)NCc1ccco1 | 106.3
Cc1c(OCC(=O)N(C)c2ccccc2)ccc2c3c(c(=O)oc12)CCC3 | 91.6
COCC(=O)NCCc1nc2ccccc2n1Cc1c(F)cccc1Cl | 97.4
Cc1ccc(/C=C2\SC(=S)N(CC(=O)N3CCN(C)CC3)C2=O)cc1 | 101.9
O=C(Cn1nc2n(c1=O)-c1ccccc1SC2)NC(=O)Nc1ccccc1 | 110.6
CCOc1ccccc1NC(=O)CCN1CCN(S(=O)(=O)c2ccc(Br)cc2)CC1 | 97.1
C1=C(c2ccccc2)Nc2nnnn2C1 | 86.4
Cn1cccc1C(C#N)c1ccccc1C#N (stereo not given) | 111.5
Cn1ccnc1SCC(=O)c1ccc(O)cc1 | 97.0
COc1ccc(NC2CC(=O)N(c3ccccc3C(F)(F)F)C2=O)cc1 (stereo not given) | 103.0
CCN1CCN(CC(O)COc2ccc3c(c2)CCC3)CC1 (stereo not given) | 98.3
CCOC(=O)c1cc(C)nn1C(=O)c1c(F)cccc1Cl | 99.4
C(=C\c1ccccc1)/CSc1ncnc2ccccc12 | 102.9
CCN(CC)c1ccc(C(=O)O)cc1 | 111.1
CN(Cc1ccccc1)C(=O)COC(=O)Cc1c(Cl)cccc1Cl | 107.6

Additional entries.
SMILES | Vaccinia pol inh
CCCNC(=O)c1ccc(NC(C)=O)cc1 | 99.4
O=C(Nc1ccc2c(c1)OCO2)C12CC3CC(CC(C3)C1)C2 | 93.3
CC(C)(C)NC(=O)c1ccc(C(=O)O)s1 | 91.2
Cn1c(-c2ccc(Cl)cc2)cs/c1=N\C(=S)NCCc1ccccc1 | 104.1
CCCNS(=O)(=O)c1ccc(NC(=O)c2ccccn2)cc1 | 102.7
COc1ccc(-c2cc3c(n2Cc2ccc(F)cc2)CC(C)(C)CC3=O)cc1 | 83.4
O=C1c2cccnc2C(=O)N1CCc1ccc(S(=O)(=O)NCCc2ccccc2)cc1 | 87.6
O=C(Nc1ccccc1NC(=O)c1ccc(Br)o1)c1ccc(Br)o1 | 96.0
CC(Sc1nc2ccc(Br)cc2[nH]1)C(=O)O (stereo not given) | 99.7
CC1=C(C(=O)c2ccccc2)C(c2ccc(C)o2)n2c(nc3ccccc32)N1 (stereo not given) | 100.3
CCCCC(=O)Nc1ccc(-c2csc(-c3ccccc3)n2)cc1 | 100.0
COC(=O)c1ccc2ccccc2n1 | 100.5
CCOC(=O)c1c(C)oc2c1c(/C=N/c1cccc(C)n1)c(O)c1ccccc12 | 100.4
COc1cc(NC(=O)c2ccc3c(-n4ccnc4)c4c(nc3c2)CCCC4)cc(OC)c1OC | 100.7
Cc1ccc2cnn(CCCC(=O)NCc3ccccc3)c2c1 | 93.6
O=C(CSc1nc2ccccc2s1)OCN1C(=O)c2ccccc2C1=O | 99.9
O=C(NCc1cn2ccsc2n1)C(F)(F)F | 103.6
O=C(O)C(c1ccccc1)N1CCCCC1 (stereo not given) | 102.3
NC(=O)c1nnn(Cc2ccccc2)c1N | 100.2
CCC1CCCCN1C(=O)CN1C(=O)c2ccccc2C1=O (stereo not given) | 98.5
O=C(NC1CCCCCCCCCCC1)c1ncn[nH]1 | 100.0
CC(C)n1c(SCC(=O)O)nc2cc(Cl)ccc21 | 99.5
N#Cc1sc2nc(-c3ccncc3)cc(C(F)(F)F)c2c1N | 99.6
Cc1cc(NC2=CC(=O)CCC2)ccc1I | 99.1
FC(F)(F)c1ccc(NCc2cn3ccccc3n2)cc1 | 105.4

The final 12 records of the part above open the next one.
SMILES | Vaccinia pol inh
COc1cc(NC(=O)c2ccc3c(-n4ccnc4)c4c(nc3c2)CCCC4)cc(OC)c1OC | 100.7
Cc1ccc2cnn(CCCC(=O)NCc3ccccc3)c2c1 | 93.6
O=C(CSc1nc2ccccc2s1)OCN1C(=O)c2ccccc2C1=O | 99.9
O=C(NCc1cn2ccsc2n1)C(F)(F)F | 103.6
O=C(O)C(c1ccccc1)N1CCCCC1 (stereo not given) | 102.3
NC(=O)c1nnn(Cc2ccccc2)c1N | 100.2
CCC1CCCCN1C(=O)CN1C(=O)c2ccccc2C1=O (stereo not given) | 98.5
O=C(NC1CCCCCCCCCCC1)c1ncn[nH]1 | 100.0
CC(C)n1c(SCC(=O)O)nc2cc(Cl)ccc21 | 99.5
N#Cc1sc2nc(-c3ccncc3)cc(C(F)(F)F)c2c1N | 99.6
Cc1cc(NC2=CC(=O)CCC2)ccc1I | 99.1
FC(F)(F)c1ccc(NCc2cn3ccccc3n2)cc1 | 105.4
Cn1cc(SCC(=O)N2CCCC2)c2ccccc21 | 100.4
CC(C)(C)c1ccc(N=Cc2ccsc2)cc1 | 95.5
C=CCn1c(SCC(=O)O)nnc1-c1cccs1 | 100.3
Nc1ccccc1C(=O)NCc1ccco1 | 93.9
Cc1nnc(NCc2ccccc2)n(N)c1=O | 100.0
O=C(CSc1ccccn1)NC12CC3CC(CC(C3)C1)C2 | 102.8
CSC1=NC2(CCCCCC2)Cc2ccccc21 | 100.0
CC[N+]1(Cc2ccccc2)C2=C(CN(C)CC2)c2ccccc21 (stereo not given) | 100.2
CCCSc1nc2ccccc2[nH]1 | 99.3
Cn1ccnc1SCC(=O)N1c2ccccc2C(C)(c2ccc(Cl)cc2)CC1(C)C (stereo not given) | 99.9
CC(=NCCc1c(C)[nH]c2ccc(OC(F)(F)F)cc12)C1=C(O)CC(c2ccccc2)CC1=O (stereo not given) | 100.1
Cc1noc(C)c1Cc1c(Cl)cccc1Cl | 111.4
COc1cc(OC)c(NC(=O)c2oc3ccc4c(c3c2C)C(=O)CC2(CCCC2)O4)cc1Cl | 93.9
COc1ccc(CNC(=O)c2cc(=O)[nH]c3ccc(S(=O)(=O)N4CCCC4)cc23)cc1 | 94.7
S=C(Nc1cccc(Cl)c1)NC12CC3CC(CC(C3)C1)C2 | 100.5
CC(C)C(NC(=O)c1cc2ccccc2cc1O)C(=O)O (stereo not given) | 104.3
Cc1cccc(NC(=O)c2cnn(-c3ccccc3)c2NC(=O)c2ccco2)c1 | 92.0
COc1cc(C2Sc3ccccc3NC3=C2C(=O)c2ccccc23)ccc1OC(C)=O (stereo not given) | 98.8
O=c1oc2ccccc2nc1/C=C(\O)c1ccccc1 | 106.6
COc1cccc2cc(C(=O)Nc3ccccc3)c(=O)oc12 | 103.1
O=C(CC(C(=O)N1CCc2ccccc21)C(=O)N1CCc2ccccc21)c1ccccc1 | 99.8
O=C1NC(=Nc2cccc(C(=O)O)c2)S/C1=C/c1ccc(-c2ccc(C(=O)O)cc2)o1 | 28.6*
Cc1cccc(NC(=O)c2cc(N3C(=O)C=CC3=O)ccc2Cl)c1 | 100.6
O=C1c2ccccc2C(NCc2cccnc2)N1Cc1cccnc1 (stereo not given) | 101.0
CCCCc1c(C)nc(-c2ccc(Cl)cc2)[nH]c1=O | 100.9

The list continues.
SMILES | Vaccinia pol inh
Cc1ccccc1N=Cc1ccco1 | 99.3
FC(F)(F)c1ccc(C2C3C(=NN2c2cc(Cl)ccc2Cl)C2CCN3CC2)cc1 (stereo not given) | 104.9
CCCN(CCC)S(=O)(=O)c1ccc(C(N)=O)cc1 | 103.0
CCOC(=O)c1[nH]c2c(c1-c1ccccc1)C(=O)CC(c1ccc(Cl)cc1)C2 (stereo not given) | 95.3
O=C(O)C1CCCCC1C(=O)N1CCN(C(c2ccccc2)c2ccccc2)CC1 (stereo not given) | 100.6
CC1CC(C)CN(S(=O)(=O)c2ccc3[nH]cc(C(=O)NC4CCCCC4)c(=O)c3c2)C1 (stereo not given) | 113.3
NC(=O)c1oc2ccccc2c1NC(=O)CSc1ccccc1 | 101.3
CCCOc1ccc(Br)cc1/C=C1\NC(=S)NC1=O | 100.2
O=C(Nc1nc(-c2ccccc2)cs1)Oc1ccccc1 | 99.0
COc1ccc(NC(=S)N(CC2CC=CCC2)CC2CCCO2)cc1 (stereo not given) | 98.9
CCn1c2ccccc2c2nc(C)sc21 | 87.9
NS(=O)(=O)c1ccc2c(c1)OCCO2 | 101.0
Cc1onc(-c2ccccc2)c1CNS(=O)(=O)c1cccc(Cl)c1 | 98.6
CCOc1ccc(NC(=O)CN2CCCc3ccccc32)cc1 | 100.5
OCC1c2ccccc2-c2ccccc21 | 99.9
NC(=NCCc1c[nH]c2ccccc12)NC(=O)c1ccccc1 | 100.2
O=C(CN1C(=O)CCC1=O)Nc1ccccc1Oc1ccccc1 | 100.1
CCN1C(=O)c2ccccc2S(=O)c2ccc(C(=O)NCC(OC)OC)cc21 (stereo not given) | 101.6
O=C(NCc1ccccc1)c1ccc2c(c1)sc1nc(-c3ccccc3)cn12 | 99.1
CCOC(=O)c1ccc(NCC(=O)N2CCc3ccccc32)cc1 | 101.1
CCOc1ccccc1C(=O)N(Cc1cc2ccccc2[nH]c1=O)C(C)C | 105.0

This is a subset, so the mix of outcomes need not match the whole.
